# Compound activity deposited in PubChem BioAssay by ICCB-Longwood Screening Facility, Harvard Medical School.
# MgrA-DNA mod: modulators of Staphylococcus aureus MgrA DNA binding; hit rate 0.13% among 84,000; fluorescence polarization; inhibition, %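 (about 10 µg/mL by stock and volumes)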;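 active = above 50% in either of two replicates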;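 also: 0% = protein plus DNA without compound and 100% = DNA alone without protein; higher means less MgrA bound to DNA so lower polarization; one replicate is shown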
# S aureus helic: S. aureus DNA helicase inhibition. purified S. aureus helicase, fluorescence unwinding assay; about half of the hits fall short of the stated cut. inhibition, %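 (tested at about 80 µM)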. hit rate 0.05% among 120,000. AID 485395;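 active = both duplicates at 50% or more, or one of them with a favoured structure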;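 also: 0% = mean of negative control wells and 100% = mean of positive control wells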
# The depositor's hits bear a star; . = not tested or not shown; & = joins results of further samples. Some of the compounds tested (hit frequency here may not be typical).
MgrA-DNA mod,S aureus helic,mol
0.2,5.0,COCCn1c(=O)c(C#N)cc2c(=O)n3ccccc3nc21
.,11.0,COc1ccc(-n2nnn(CN3CC(C)OC(C)C3)c2=S)cc1 (stereo unspecified)
.,-3.0,O=C(CSc1c[nH]c2ccccc12)NC1CCCC1
.,13.0,COC(=O)c1ccc(NC(=O)N2CC(C)Oc3ccccc32)cc1 (stereo unspecified)
-1.5&-0.4,.,CN(Cc1cnc2nc(N)nc(N)c2n1)c1ccc(C(=O)NC(CCC(=O)O)C(=O)O)cc1 (stereo unspecified)
0.4,-1.0,Cc1ccc(C(=O)NC2CCN(C(=O)NC3CCCCC3)CC2)cc1
6.1,7.0,Clc1ccc(-c2ncc3ccccn23)cc1
.,4.0,O=C(NCc1ccc2c(c1)OCO2)c1ccc(CSc2nc3ccncc3[nH]2)cc1
0.6,3.0,COc1cc(Br)cc(/C=N/N(CCO)C2=NS(=O)(=O)c3ccccc32)c1OC
.,16.0,CC(=O)N1N=C(CCn2c3ccccc3c3ccccc32)OC1(C)c1cccs1 (stereo unspecified)
.,3.0,COC(=O)c1sccc1S(=O)(=O)N1CCC(C(N)=O)(N2CCCCC2)CC1
-1.6,.,c1cc(-c2nc(-c3ccc4c(c3)OCCCO4)cs2)ccc1-c1csnn1
-0.3,20.0,O=C(NNc1ccccc1)NNc1ccccc1
.,-15.0,Cc1ccc(N2NC(=O)CC2=O)cc1Cl
.,-3.0,O=C(c1ccc(S(=O)(=O)NCc2ccco2)cc1)N1CCN(c2ncccn2)CC1
0.4,17.0,CCOc1ccc2cc3c(N)c(C(=O)N(CC)CC)sc3nc2c1
.,2.0,CC1CC(C)CN(C(=O)CSc2nc3ccc(N4CCOCC4)cc3c(=O)n2Cc2ccc3c(c2)OCO3)C1 (stereo unspecified)
-0.6,-14.0,O=C1CSC(c2ccc(Br)cc2)N1C1CCCCC1 (stereo unspecified)
-0.2,.,Cc1cc(NS(=O)(=O)c2ccc(NC(=O)c3ccccc3)cc2)no1
0.8,.,N#CCS(=O)(=O)c1cccs1

# Structural class: the compounds so far containing an aryl methoxy group (2)
MgrA-DNA mod,S aureus helic,mol
.,11.0,COc1ccc(-n2nnn(CN3CC(C)OC(C)C3)c2=S)cc1 (stereo unspecified)
0.6,3.0,COc1cc(Br)cc(/C=N/N(CCO)C2=NS(=O)(=O)c3ccccc32)c1OC

# Other results.
MgrA-DNA mod,S aureus helic,mol
.,16.0,Cc1ccc(N2CC(C(=O)N(C)Cc3c(F)cccc3Cl)CC2=O)cc1 (stereo unspecified)
.,7.0,CCOC(=O)Cc1csc(SCC(=O)NC2CCCCC2)n1
.,-15.0,CC1CCCN(C(=O)COC(=O)c2cccnc2Nc2cccc(C(F)(F)F)c2)C1 (stereo unspecified)
-1.0,.,S=C(CCC(=S)Nc1ccc(Cl)cc1)Nc1ccc(Cl)cc1
.,16.0,Cc1cccc(S(=O)Cc2ccc(C(=O)N3CCCC3)o2)c1 (stereo unspecified)
-0.9,7.0,CN(C(=O)CS(=O)(=O)c1cn(CC(=O)N2CCOCC2)c2ccccc12)c1ccccc1
-0.8,-18.0,Cc1ccccc1Oc1ccc(Oc2ccccc2C)nn1
-2.8,15.0,CC(C)C(=O)Nc1ccc(-c2cn3ccccc3n2)cc1
-1.8,-4.0,Clc1ccc(NCc2ccsc2)cc1
.,12.0,CCc1ccccc1NC(=O)C1CC(c2cccc(OC)c2)=NO1 (stereo unspecified)
.,-19.0,c1ccc2[nH]c(NCCN3CCOCC3)nc2c1
0.9,4.0,O=c1oc2ccc3ccccc3c2cc1-c1nn(-c2ccccc2)cc1/C=N/O
.,-8.0,O=c1c2ccccc2c2c(O)nc(-c3ccccc3)n2n1Cc1ccccc1
.,-5.0,COC(=O)Cc1csc(N)n1
1.2,7.0,O=C1C(Nc2ccccc2)=CC(c2ccc(O)cc2)N1c1ccccc1 (stereo unspecified)
.,12.0,COCCn1c(SCC(N)=O)nc2c(c1=O)SCC2
.,-16.0,Cc1ccc2nc(NC(=O)C3SC(=NCCN4CCOCC4)C(C(=O)NCc4ccco4)=C3N)sc2c1 (stereo unspecified)
1.1,8.0,CCC1CCCCN1C(=O)c1cc(Cl)ccc1OC (stereo unspecified)
.,11.0,COC(=O)c1[nH]c2c(c1C)C(=O)CCC2
.,-19.0,NC(=O)C1=CN(C(=O)Nc2ccccc2)CCC1C(F)(F)F (stereo unspecified)
1.4,4.0,CCN(CC)c1cccc(OC(=O)/C=C/c2ccco2)c1
.,11.0,O=C1c2oc3ccc(F)cc3c(=O)c2C(c2cccc(O)c2)N1CCCN1CCOCC1 (stereo unspecified)
1.5,65.0*,CCCN=c1cc(-c2ccccc2)oc2ccc(C)cc12
.,-6.0,Cc1noc(NS(=O)(=O)c2ccc(N3Cc4ccccc4C3=O)cc2)c1C
.,25.0,CCOc1ccc(-c2nonc2NC(=O)C(c2ccccc2)c2ccccc2)cc1
.,-13.0,C/C(N)=C(/C#N)C(=O)COc1ccc(C#N)cc1
.,-10.0,COc1cc(OC)cc(-c2nnc(SC(C)C(=O)c3ccccc3)o2)c1 (stereo unspecified)
1.9,-2.0,COc1ccc(-c2cc3nc(C)cc(C)n3n2)cc1
0.5,17.0,CCC(C)N(Cc1c[nH]c2ccccc12)C(=S)Nc1cccc(C)c1 (stereo unspecified)
.,-26.0,CC(C)CN(CC(C)C)C(=O)C1CCN(S(=O)(=O)c2cccc3nsnc23)CC1
.,-7.0,CCN1CCc2nc(NC(=O)Cc3cn4ccsc4n3)sc2C1
.,-20.0,CC1=CC(=C2C(=O)NC(=O)NC2=O)C=C(C)O1
.,3.0,C=CCN(c1ccccc1C(=O)NCC(=O)O)S(=O)(=O)c1ccccc1
.,3.0,O=S(=O)(c1cccc(-c2n[nH]c(=S)n2-c2ccccc2)c1)N1CCCC1
.,-18.0,COc1ccc(C2CC(=O)n3c(nc4ccccc43)S2)cc1 (stereo unspecified)
.,0.0,O=C(NCC1(N2CCOCC2)CCCCC1)c1ccc(Cl)c(S(=O)(=O)NCc2ccco2)c1
1.8,1.0,C=CCn1c(N2CCC(C(N)=O)CC2)nc2c1c(=O)n(C)c(=O)n2C
.,-5.0,Cc1nnc(CSc2ccc(Cl)c(C(F)(F)F)c2)o1
1.1,2.0,COCCNc1oc(COc2ccc(Br)cc2)nc1C#N
2.2,.,S=c1[nH]nc(NCCc2ccc(Cl)cc2)s1

# A run of entries taken from the entries so far, for reference:
MgrA-DNA mod,S aureus helic,mol
.,0.0,O=C(NCC1(N2CCOCC2)CCCCC1)c1ccc(Cl)c(S(=O)(=O)NCc2ccco2)c1
1.8,1.0,C=CCn1c(N2CCC(C(N)=O)CC2)nc2c1c(=O)n(C)c(=O)n2C
.,-5.0,Cc1nnc(CSc2ccc(Cl)c(C(F)(F)F)c2)o1
1.1,2.0,COCCNc1oc(COc2ccc(Br)cc2)nc1C#N
2.2,.,S=c1[nH]nc(NCCc2ccc(Cl)cc2)s1

# More structures.
MgrA-DNA mod,S aureus helic,mol
1.2,-3.0,O=C(NCc1ccccn1)C(c1ccccc1)c1ccccc1
.,32.0,COP(=O)(CC(=O)c1ccccc1)CC(=O)c1ccccc1
-1.4,.,O=C(c1cc2ccccc2s1)N1CCC(O)(c2ccc(Cl)cc2)CC1
14.9,6.0,O=c1[nH]cc(Sc2cccc3cccnc23)c(=O)[nH]1
.,3.0,CC(=O)N1CCC(N(CCN2CCOCC2)C(=S)Nc2cc(F)cc(F)c2)CC1
-11.4,.,O=C1C=C(c2ccccc2)C(=O)N1c1cccc(Cl)c1
.,-2.0,COC(=O)c1ccc(CSc2nncn2-c2ccccc2)cc1
-2.4,.,COc1c(Cl)cc([N+](=O)[O-])c(OC)c1C(=O)O
.,0.0,CC(=O)Nc1ccc(NC(=O)CN2Cc3ccccc3C2=O)cc1
1.2,-23.0,Cn1nc(-c2ccccc2)cc1-n1cnc2ccccc21
.,7.0,Cc1ccc(-c2nc3ncccc3o2)cc1NC(=O)c1ccc(F)cc1
-1.1,-17.0,CC1(C)CC(=O)C=C(Nc2ccc(Br)cn2)C1
.,-5.0,O=C(Oc1ccc2c(c1)OCO2)c1cc2c(s1)CCCC2
.,-21.0,COc1ccc(O)c(C(=O)c2cc(C#N)c(=O)n(CCN3CCOCC3)c2)c1
-1.4,4.0,CCCSc1nnc(Cn2c(=O)sc3ccccc32)n1CCc1ccccc1
3.9,0.0,CCc1ccc2[nH]c(=O)c(C(c3nnnn3C(C)(C)C)N3CCCCC3)cc2c1 (stereo unspecified)
-1.5,13.0,O=C1c2cc(OCCN3CCOCC3)ccc2-c2ccc(OCCN3CCOCC3)cc21
0.8,13.0,COc1ccc(OCC(=O)N(C)C)cc1
1.2,5.0,O=C(NC1CCCC1)c1cc(-c2ccc(Cl)s2)nc2ccccc12
2.5,-16.0,Cc1ccc(O)c(N/C=C/C(=O)C(C)(C)C)c1
-0.9,.,CCOC(=O)c1ccc2nc(C(F)(F)F)cc(NC3CCN(Cc4ccccc4)CC3)c2c1
-2.2,5.0,O=C(CCC1COc2ccccc2O1)Nc1ncccc1O (stereo unspecified)
.,-21.0,Cc1ccc(-c2nc3ncncn3c2Nc2cccc(C)c2)cc1
.,15.0,CN(Cc1ccccc1)C(=O)Cn1cnc2c(cnn2C)c1=O
.,5.0,Cc1noc2ncnc(N3CCC(C(=O)N4CCN(C(=O)c5ccco5)CC4)CC3)c12
-1.0,.,CN1CCN(c2ccccc2C=Nc2ccc(C(C)(C)C)cc2)CC1
-0.1,.,O=C1NCCN1CCNC(=S)NC1CC1
4.2,11.0,CCc1ccc2nc(N)sc2c1
-0.2,3.0,CSc1ccc(CNCCCn2ccnc2)cc1
.,13.0,CCC(C)COC(=O)c1ccc(C(=O)O)cc1 (stereo unspecified)
-4.1,-5.0,CCOC(=O)Cn1ccc(C(F)(F)F)n1
0.0,6.0,CC(C)Cn1c2ccc(Br)cc2c2nc3ccccc3nc21
30.0,18.0,CC1=CC(=O)C=C(C)C1=NS(=O)(=O)c1ccccc1
.,-3.0,CN1C(=O)/C(=C\c2coc3ccccc3c2=O)c2ccccc21
1.8,8.0,NNC(=O)CCn1c(-c2ccccc2)c(-c2ccccc2)c2ccccc21
-2.1,-2.0,CSc1nc2ccccc2n(C)c1=O
-1.6,.,O=C(NC1CC1)c1cc2ccccc2oc1=O
.,-9.0,Cc1ccc(OC(=O)C2COc3ccccc3O2)cc1C (stereo unspecified)
.,-5.0,COc1ccc(-c2nnc(SCC(=O)N(C)C)n2N)cc1OC
-0.7,.,Cc1c(S(=O)(=O)c2ccccn2)c(N)n(Cc2ccccc2Cl)c1C

# 4 records drawn at random from the list so far, as already listed:
MgrA-DNA mod,S aureus helic,mol
1.4,4.0,CCN(CC)c1cccc(OC(=O)/C=C/c2ccco2)c1
1.8,8.0,NNC(=O)CCn1c(-c2ccccc2)c(-c2ccccc2)c2ccccc21
2.2,.,S=c1[nH]nc(NCCc2ccc(Cl)cc2)s1
-0.1,.,O=C1NCCN1CCNC(=S)NC1CC1

# Following part:
MgrA-DNA mod,S aureus helic,mol
0.2,-4.0,C1=Nn2c(nnc2-c2ccncc2)SC(c2ccccc2)=C1
.,-8.0,Oc1c(C(c2cccs2)N2CCN(c3ccccc3)CC2)sc2ncnn12 (stereo unspecified)
0.6,5.0,Cc1cc(C(=O)Nc2ccc(C(C)C)cc2)n(-c2ccccc2)n1
0.4,12.0,Cc1ccc(C2CC(c3ccccc3C)n3nc(N)nc3N2)cc1 (stereo unspecified)
.,7.0,Cc1ccc(N)c(C(=O)O)c1Br
-0.6,5.0,O=C(NC1CCCc2ccccc21)c1ccc2c(c1)OCO2 (stereo unspecified)
-0.8,.,FC(F)(F)COc1ccc(-c2nnc(SCc3ccccc3)o2)cn1
.,7.0,CCOc1cc(C2C(C(=O)N3CCCCC3)=C(C)NC3=C2C(=O)CCC3)ccc1OC(C)=O (stereo unspecified)
.,11.0,Nc1cccc2nonc12
.,1.0,Cc1noc(C)c1CN(C(=S)NC(C)C)c1ccccc1
.,-5.0,CCOC(=O)c1sc2nc(C)cc(C)c2c1NC(=O)c1cccs1
-0.5,6.0,O=C(CSc1nnc(CNc2cccc(Cl)c2)o1)Nc1cccc(Cl)c1
-2.5,.,O=S(=O)(Nc1ccccc1C(F)(F)F)c1cccs1
-0.4,12.0,CC(C)C(NS(=O)(=O)c1cccc2nsnc12)C(=O)NC1CCCC(C)C1C (stereo unspecified)
.,2.0,Cc1noc(C)c1CSc1ncccc1C(=O)Nc1ccnn1C1CCN(C)CC1
0.5,7.0,C/C(CCC1CC(C)OC1=O)=N\NC(N)=O (stereo unspecified)
-1.1,6.0,O=c1ccn2c(n1)OC1C(O)C(CO)OC12 (stereo unspecified)
0.6,1.0,Cc1sc(NC(=O)c2ccccc2)c(C(=O)N2CCCCC2)c1C
.,-40.0,CCN(CC)C(=O)CSc1[nH]c2ccccc2c(=O)c1C(=O)OC
.,-5.0,COCCn1cc(C(=O)c2cc(F)ccc2OCC(=O)Nc2cc(C)on2)cc(C#N)c1=O
-1.5,.,COC(=O)c1c(SC)nc(-c2ccccc2)[nH]c1=O
-1.0,19.0,CC(C)c1n[nH]c(=S)n1C
.,2.0,CN1CCN(C(CC(=O)Nc2ccc(Oc3ccccc3)cc2)C(=O)O)CC1 (stereo unspecified)
.,-2.0,COc1ccccc1/C=C/C(=O)NCCc1ccccn1
-1.9,17.0,O=C(NCc1ccco1)c1cc2nc3c(c(C(F)(F)F)n2n1)CCc1ccccc1-3
-1.9,-2.0,CCN(CC)C(=O)N(CC)C1CCCCC1
-2.3,5.0,N#Cc1c2c(c(-c3ccccc3)[nH]c1=S)CCCC2
.,4.0,CCOC(=O)c1nc2c3ccccc3ncn2n1
.,-8.0,CCOC(=O)Nc1ccc2c(c1)N(C(=O)CCNC)c1ccccc1S2
.,6.0,O=C1/C(=C/c2cccnc2)SC(=S)N1N1CCOCC1
-0.9,1.0,O=C(CSc1nc2ccccc2c(=O)n1-c1ccccc1)N1CCOCC1
.,-1.0,Cc1cn(CC(C)C)c(=O)[nH]c1=O
.,18.0,CCCCn1c(CO)cnc1S(=O)(=O)CC1CCC1
.,-11.0,O=C(NCCCc1ccccc1)c1cc2c(s1)CS(=O)(=O)C2
